GALR2 agonist – agonists of human galanin receptor 2 (GALR2). O43603. GALR2-expressing cells, agonist activation read-out. activation, %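 (tested at 5 µM)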. 140,000 tested, 0.48% active. AID 803;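 active = above mean plus 3 SD of all compounds, about 5% in these data, not always enough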;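 note: 0% = vehicle buffer wells and 100% = reference agonist at full effect; tested in CHO reporter cells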
INS promoter inh – TRM-6 insulin promoter activity inhibition; inhibition, % at 2 µM; TRM-6 cells (human fetal islet line), insulin promoter-eGFP reporter, imaging; reporter expression induced with tamoxifen; 130,000 tested, 0.9% active;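 active = inhibition above the mean plus 3 SD, with well images judged a real hit on visual review, cut at about 60% in these data, passing the limit was not always enough; inconclusive = inhibition over the cutoff but images rejected on review; inactive = inhibition not above the cutoff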
RGS16-Gao – modulates binding between human RGS16 and Galphao. O15492+P09471. bead-based flow cytometry RGS16-Galphao binding, fluorescence; actives lie on both sides. binding response (% of control), % at 10 µM. 220,000 tested, 0.38% active. AID 1441;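 active = below 25% or above 175%, edge rows of some plates excepted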;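 note: Galphao activated by GDP with aluminum fluoride before binding; 100% = wells without compound and 0% = beads without RGS; some results beyond the cut were filed as inactive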
HSV replic up – HSV replication enhancement; HSV replication augmentation in cells, fold increase; maximum fold increase; 220,000 tested, 0.005% active;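 active = peak rise of 1.5-fold or more in the series; inconclusive = self-fluorescent or not available for retest; tested in PC3 cells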;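 note: first round at 10 µM; read as green reporter fluorescence; hits show the peak of a series up to 25 µM; 1 = signal of infected wells without compound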
PKD1 kinase inh – inhibitors of human PKD1 kinase; 200,000 tested, 0.056% active; Q15139; inhibition, %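 (about 10 µM by stock and volumes)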; PKD1 kinase fluorescence polarization assay;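 active = inhibition of 50% or more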;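 note: controls were vehicle for no effect and a reference inhibitor for full effect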
Target sequence (Q15139 whole entry, looked up): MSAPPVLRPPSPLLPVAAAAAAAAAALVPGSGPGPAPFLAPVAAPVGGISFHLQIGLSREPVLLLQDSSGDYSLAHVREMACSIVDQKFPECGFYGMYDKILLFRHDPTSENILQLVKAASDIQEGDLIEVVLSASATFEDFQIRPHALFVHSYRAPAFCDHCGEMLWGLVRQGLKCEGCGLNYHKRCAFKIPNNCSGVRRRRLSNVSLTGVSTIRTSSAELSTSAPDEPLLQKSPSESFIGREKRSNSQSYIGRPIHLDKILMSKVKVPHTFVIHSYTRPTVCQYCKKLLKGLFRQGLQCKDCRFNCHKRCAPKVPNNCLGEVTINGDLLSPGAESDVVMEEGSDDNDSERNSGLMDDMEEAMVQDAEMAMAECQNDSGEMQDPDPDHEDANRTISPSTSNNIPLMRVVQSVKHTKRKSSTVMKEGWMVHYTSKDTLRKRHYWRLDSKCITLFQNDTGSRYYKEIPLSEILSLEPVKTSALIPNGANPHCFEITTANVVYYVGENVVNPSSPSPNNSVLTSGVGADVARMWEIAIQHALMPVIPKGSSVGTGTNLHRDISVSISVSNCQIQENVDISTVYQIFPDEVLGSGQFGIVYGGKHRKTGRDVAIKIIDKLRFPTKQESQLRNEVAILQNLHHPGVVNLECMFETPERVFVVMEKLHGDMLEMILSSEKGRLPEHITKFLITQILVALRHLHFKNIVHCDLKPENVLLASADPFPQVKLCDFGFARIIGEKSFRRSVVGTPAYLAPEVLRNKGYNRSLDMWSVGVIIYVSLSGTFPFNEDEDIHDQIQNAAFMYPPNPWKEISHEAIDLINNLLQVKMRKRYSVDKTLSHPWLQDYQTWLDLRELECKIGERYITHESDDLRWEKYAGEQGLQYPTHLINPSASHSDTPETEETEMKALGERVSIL
INS promoter inh cell count – further read-out of INS promoter inh, marked with its call; normalized cell count, %; measured here: cell count, toxicity; reference of the scale not given here;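 cells exposed to compound for 48 h; stained nuclei by imaging scaled within each plate; lower means fewer cells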
HSV replic up primary fold – also measured in HSV replic up; calls as there; fold increase; compound at 10 µM; measured here: primary screen fold increase 10 uM; tested in PC3 cells;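 GFP signal in the first replicate; 1 = infected wells without compound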
* = called active by the depositor; i = inactive; ? = inconclusive; . = no result given. The order is random; about 1.3% have a hit in one of these screens.

SMILES | GALR2 agonist | INS promoter inh | INS promoter inh cell count | RGS16-Gao | HSV replic up | HSV replic up primary fold | PKD1 kinase inh
Cc1cccc(CS(=O)(=O)Cc2ccc(C(=O)NCc3ccco3)o2)c1 | -1.0 | -23 | 21 | 101 | . | . | -3
CC(C)=CC(=O)OCC(=O)Nc1ccc(SC(F)F)cc1 | . | . | . | 102 | i | 0.96 | -2
Cc1ccc(SCc2cc(=O)[nH]c(Nc3nc(C)c4cccc(C)c4n3)n2)cc1 | 0.4 | 0 | 104 | 104 | i | 0.81 | 0
O=C(Nc1nnc(SCC(=O)N2CCCc3ccccc32)s1)c1ccc2ccccc2c1 | -1.0 | . | . | 82 | i | 1.1 | 11
Cc1cc(C)c(CN2CCCC(CNC(=O)c3ccc(F)cc3)C2)c(-n2cccn2)c1 (stereo unspecified) | . | . | . | 102 | i | 1 | -1
O=C(O)CSc1nnc(-c2ccncc2)n1CCc1ccccc1 | -1.2 | . | . | 98 | i | 0.91 | -1
CCN(CC)C(=O)CSc1nc2[nH]ncc2c(=O)[nH]1 | . | 9 | 85 | 97 | i | 0.79 | 5
c1ccc2c(c1)oc1c(NCC3CCCO3)ncnc12 (stereo unspecified) | -1.4 | 27 | 236 | 102 | i | 1.3 | -3
Cc1ccc(-c2nc(N)n(C(=O)c3cccs3)n2)cc1 | . | -25 | 57 | 108 | i | 1.1 | -2
O=C(Cn1c(-c2ccccc2)c[n+]2ccsc12)c1ccccc1 | . | . | . | 97 | i | 0.9 | -9
CCc1nnc(NS(=O)(=O)c2ccc(NC(=S)NC(=O)c3ccccc3)cc2)s1 | -1.1 | 20 | 40 | 102 | i | 0.96 | -9
Cc1nn(C)c(C)c1/C=C(/C(=O)C(C)C)n1cncn1 | . | . | . | 36 | i | 0.92 | .
CCCn1c(SCC(=O)NCc2ccccc2)n[nH]c1=O | . | -42 | 124 | 95 | i | 1 | 2
Cc1ccc(-c2noc(CCC(=O)N3CCN(c4cccc(C(F)(F)F)c4)CC3)n2)cc1 | -0.8 | -19 | 97 | 108 | i | 0.98 | -14
FC(F)(F)c1cc(C(F)(F)F)c2ccc(N/N=C/c3cccc(Cl)c3)nc2n1 | -0.4 | 37 | 117 | 102 | i | 1 | 0
CN(C)c1cc(NC(=O)CNC(C)(C)C)c2ccccc2n1 | . | . | . | 95 | i | 0.97 | .
Cc1cc(C)c2c3c(oc2n1)C(=O)N(c1cccc(Cl)c1)CC(=O)N3 | . | . | . | 97 | i | 1.1 | .
c1ccc(CCn2cnc3ccccc32)cc1 | . | . | . | 98 | i | 0.94 | 9
CCOc1cc(/C=C2\C(=O)ON=C2C)ccc1OCc1ccccc1 | 0.3 | -9 | 84 | 85 | i | 0.92 | -1
COc1cccc(/C=N\NC(=O)Cn2nnc3ccccc32)c1O | . | . | . | 91 | i | 0.89 | 1
O=C(NNS(=O)(=O)c1ccccc1[N+](=O)[O-])c1ccccc1Cl | . | -33 | 109 | 97 | i | 1 | 3
O=c1cc(CSc2nnc3ccccn23)c2c(ccc3ccccc32)o1 | -1.5 | 7 | 167 | 101 | i | 0.99 | 1
Cc1ccc(/C=C(\NC(=O)c2ccccc2)C(=O)NCC2CCCO2)o1 (stereo unspecified) | . | . | . | 100 | i | 1.1 | -4
Cc1[nH]c(=O)[nH]c(=O)c1NC(=O)CSc1ncccc1-c1nc2ccccc2[nH]1 | -0.8 | 41 | 124 | 42 | i | 1 | -3
O=C1OC(c2ccc3c(c2)OCO3)N(C(=O)c2ccc(Cl)c(Cl)c2)c2ccccc21 (stereo unspecified) | -1.4 | -3 | 87 | 90 | i | 1 | -3
Cc1ccc(Cl)cc1N1CCN(C(=O)C2CCN(c3nnc(-n4cccc4)s3)CC2)CC1 | -1.3 | . | . | 98 | i | 1 | -5
Cc1cc(C)c(S(=O)(=O)c2ccccc2C)c(N(C)C)n1 | -2.1 | 25 | 122 | 100 | i | 1 | 2
CN1CCC(N(C)C(=S)NCCc2ccccc2)CC1 | . | . | . | 103 | i | 1 | 0
CCSc1nc(-c2ccccc2)nc2c1CCCC2 | . | . | . | 103 | i | 0.99 | 0
Cc1c(Cl)cnc(NC(=O)COC(=O)c2cc3c(s2)CCC(C)C3)c1Cl (stereo unspecified) | -0.6 | . | . | 99 | i | 0.91 | 8
O=C(c1ccccc1)[C@@H]1[C@@H]2C(=O)N(c3ccc(F)cc3)C(=O)[C@@H]2C2CCCN21 (stereo partly specified) | . | . | . | 94 | ? | . | .
CCS(=O)(=O)N1CCc2cc(OC)c(OC)cc2C1 | -1.8 | -324 | 60 | 104 | i | 1 | -6
O=[N+]([O-])c1cccc(/C=C/c2nc(C=Nc3ccccc3)c(O)o2)c1 | 0.6 | . | . | 105 | i | 0.93 | 0
Cc1nn(-c2ccccc2)c(Cl)c1/C=C/C(=O)c1ccc(O)cc1 | 0.3 | . | . | 104 | i | 1.1 | -6
CCOC(=O)C1(CCOc2ccccc2)CCN(CCCn2cccn2)CC1 | . | . | . | 103 | i | 0.95 | 6
CCOC(=O)c1ccc(NC(=O)c2nc[nH]c2C(=O)N[C@@H](Cc2ccccc2)C(=O)OC(C)(C)C)cc1 | . | . | . | 97 | i | 0.96 | .
c1ccc(CNc2ncnc3ccccc23)cc1 | -1.4 | 26 | 118 | 109 | i | 0.84 | 0
CCN(CC)c1ccc(NC(=O)CN2C(=O)CSc3ncccc32)c(C)c1 | -2.0 | . | . | 100 | i | 0.93 | 6
C/C(CC(=O)Nc1ccc(N(C)C)cc1)=N\NC(=O)Cc1csc(N)n1 | -0.2 | 11 | 126 | 100 | i | 0.93 | 3
Cc1nn(-c2ccccn2)c(C)c1Oc1ccccc1O | -0.1 | . | . | 93 | i | 0.94 | 9
COc1ccc(NS(=O)(=O)c2ccc(Cl)c(NC(=O)c3cccnc3Cl)c2)cc1 | . | . | . | 84 | i | 0.91 | .
O=C(NC1CCCC1)C(c1cccnc1)N(C(=O)c1csnn1)C1CC1 (stereo unspecified) | -3.3 | . | . | 108 | i | 0.95 | -4
COc1ccc(S(=O)(=O)N2CC(O)CC2C(=O)OCc2nc3sc(C)c(C)c3c(=O)[nH]2)cc1 (stereo unspecified) | -1.6 | 8 | 138 | 105 | i | 0.96 | -3
c1ccc(-c2nccc(-c3ccc(-n4cnc5ccccc54)cc3)n2)cc1 | -1.3 | 0 | 89 | 105 | . | . | -5
Clc1ccc(COn2c(-c3ccc(Cl)cc3Cl)nc3ncccc32)cc1 | -0.2 | 14 | 132 | 102 | i | 0.95 | -7
CCOc1ccc(NC(=O)CNC(=O)c2ccc(OC)c(OC)c2)cc1 | -0.7 | -8 | 128 | 101 | i | 0.97 | 4
S=c1[nH]ccn1-c1cccc(Cl)c1 | -1.2 | 44 | 78 | 96 | i | 0.93 | 3
COc1cccc(-c2nc(CC(=O)O)cs2)c1OC | -0.9 | . | . | 99 | i | 0.77 | -7
Cc1ccc(C(=O)N2CCN(S(=O)(=O)c3ccccc3[N+](=O)[O-])C2)cc1 | . | 40 | 120 | 103 | i | 0.97 | 8
COC(=O)[C@@]1(Cc2ccc(F)cc2)[C@H]2c3cc(C(=O)N(C)C)n(Cc4ccccn4)c3C[C@H]2CN1C(=O)c1ccccc1 | -2.2 | 0 | 99 | 60 | i | 0.78 | 7
CC(C(=O)NC(C)(C)C)N(Cc1cccs1)C(=O)CCN1CCc2ccccc21 (stereo unspecified) | . | -83 | 105 | 98 | i | 1 | -5
CC(C)c1ccc(NCCC(=O)c2ccc(Br)cc2)cc1 | 0.2 | . | . | 142 | i | 0.9 | -13
CCSc1ccc(-c2ccc(C)cc2)nn1 | . | -11 | 86 | 102 | i | 0.96 | -11
CCCNC(=O)c1ccccc1NC(=O)CN(c1ccccc1OCC)S(C)(=O)=O | -2.4 | 28 | 134 | 103 | i | 0.82 | 3
COc1cccc(Cn2c(NCc3ccco3)nc3c2c(=O)n(C)c(=O)n3C)c1 | -0.9 | . | . | 142 | i | 1.1 | -11
COc1nc(NCCO)nc(Nc2ccc([N+](=O)[O-])cc2)n1 | 0.2 | 7 | 109 | 87 | i | 1.1 | 4
Cc1cccc(C)c1NS(=O)(=O)c1ccc(F)cc1 | 0.0 | 58 | 85 | 106 | i | 1 | 18
O=C(/C=C/c1ccccc1)NC(=S)Nc1ccc(N2CCOCC2)c(Cl)c1 | -2.5 | -7 | 110 | 104 | . | . | 6
O=C(N/N=C/c1cccc(Br)c1)c1ccc(Br)cc1 | . | 8 | 138 | 122 | i | 0.91 | -3
COc1ccc(CCNC(=O)CSc2nnnn2-c2ccccc2)cc1 | 0.3 | 39 | 81 | 68 | i | 1.1 | -4
Cc1ccc(Cn2nnnc2CN2CCC(O)(c3cccnc3)CC2)cc1 | . | 79* | 87* | 105 | i | 0.94 | -4
Nc1cc(=O)nc(SCc2ccccc2)n1Cc1ccco1 | -2.2 | 12 | 87 | 99 | i | 1 | -7

Screening data as filed in PubChem BioAssay.
